# Assay outcomes deposited in PubChem BioAssay by ICCB-Longwood Screening Facility, Harvard Medical School.
# MbtI inh: MbtI salicylate synthase inhibitors, primary screen, biochemical, fluorescence intensity | purified MbtI enzyme, fluorescence intensity read-out | inhibition, %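 (about 17 µg/mL by stock and volumes)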 | actives 0.89% (n = 100,000) | P9WFX0;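 active = above 50% in both replicates, above 80% if mildly self-fluorescent; inactive = the rest, strongly fluorescent compounds included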;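 note: 0% = mean of negative and 100% = mean of positive controls; one replicate is shown; some compounds called inactive have numbers as strong as hits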
# Target sequence (P9WFX0 whole entry, looked up): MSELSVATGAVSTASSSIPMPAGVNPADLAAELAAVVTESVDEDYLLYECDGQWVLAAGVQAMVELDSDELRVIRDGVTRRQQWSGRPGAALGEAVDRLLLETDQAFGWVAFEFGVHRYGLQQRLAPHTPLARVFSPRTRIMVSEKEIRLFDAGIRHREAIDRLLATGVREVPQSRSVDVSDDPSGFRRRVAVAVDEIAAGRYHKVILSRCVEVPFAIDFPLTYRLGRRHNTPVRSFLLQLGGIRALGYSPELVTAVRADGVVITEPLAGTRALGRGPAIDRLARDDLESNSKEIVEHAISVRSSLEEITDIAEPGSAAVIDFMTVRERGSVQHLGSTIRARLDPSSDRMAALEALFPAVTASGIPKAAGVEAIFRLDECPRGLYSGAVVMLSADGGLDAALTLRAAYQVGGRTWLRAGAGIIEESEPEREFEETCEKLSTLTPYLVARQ
# MenB inh: M. tuberculosis MenB inhibitors, primary screen, biochemical, absorbance; MenB enzyme assay, absorbance read-out; some hits fall short of the stated cut; inhibition, %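 (about 12 µg/mL by stock and volumes)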; actives 0.43% (n = 100,000);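 active = mean of two replicates above 30%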;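 note: 0% = no compound and 100% = wells with inactive enzyme; the first replicate is given; strong numbers were not always called active; inactives centre near -10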
# Target sequence (P9WNP5 whole entry, looked up): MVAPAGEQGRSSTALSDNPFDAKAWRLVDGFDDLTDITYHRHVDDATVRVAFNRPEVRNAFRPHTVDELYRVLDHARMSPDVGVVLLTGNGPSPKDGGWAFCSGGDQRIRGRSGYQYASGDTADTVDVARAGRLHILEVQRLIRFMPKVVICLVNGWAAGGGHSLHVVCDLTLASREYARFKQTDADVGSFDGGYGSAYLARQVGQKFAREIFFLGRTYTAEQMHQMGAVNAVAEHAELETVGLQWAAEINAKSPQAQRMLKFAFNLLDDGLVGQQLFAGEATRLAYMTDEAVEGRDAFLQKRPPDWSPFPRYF
# PV pol inh: poliovirus RdRp elongation inhibitors, primary screen, biochemical, fluorescence polarization, total intensity; poliovirus polymerase elongation; stronger effect = lower value; % elongation, % (compound at 16.7 µg/mL); actives 0.66% (n = 150,000); AID 588519, 2011; in the data active = % elongation below about 90%; note: some results filed as inactive read as strong as hits
# PV pol inh intensity: recorded beside PV pol inh, whose call it bears; % elongation; measured here: total intensity read-out; formula for this scale not given here;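 total fluorescence in place of polarization; lower means less elongation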
# * hit, by the source's call; i = inactive; . = not tested or not shown; & = joins results of further samples.
SMILES,MbtI inh,MenB inh,PV pol inh,PV pol inh intensity
CCC(C)c1ccccc1NC(=O)COc1ccc2c(c1)OCO2 (stereo not given),-23,3,106,106
COc1ccc(N2C(=O)CSCC2=O)cc1OC,-4,-6,94,92
O=C1c2oc3ccccc3c(=O)c2C(c2cccc(O)c2)N1Cc1ccccc1 (stereo not given),-8,-1,101,103
COc1ccc(CCCc2n[nH]c(=S)n2C)cc1C,41,-20,100,103
CCOc1ccc(-c2cccc(NS(C)(=O)=O)c2)nn1,-19,-14,102,104
Cc1ccc(S(=O)(=O)Nc2c(C#N)c3nc4ccccc4nc3n2Cc2ccccc2)cc1,-22,-33,73*,77*
COc1ccc(-c2cc(C(=O)NCC(C)C)no2)cc1OC,-6,-20,101,102
CC(OC(=O)CSc1nc2ccccc2o1)C(=O)c1ccc(OC(F)F)cc1 (stereo not given),1,-32,106,99
C=CCNC(=O)CSc1nncn1-c1ccccc1,17,8,101,96
CC1CCN(S(=O)(=O)c2cnc[nH]2)CC1,-9,-21,103,106
CCOC(=O)c1csc(NC(=O)CN2CCOCC2)n1,1,7,101,103
CCOC(=O)c1cnn(-c2ncnc3sc4c(c23)CCCC4)c1N,-1,-9,101,105
Fc1ccc(N2CCN(C3=Nc4cccc5cccc3c45)CC2)cc1,-4,-63,146,199
C=CCSc1n[nH]c(=O)n1-c1ccc(Cl)cc1,3,4,104,108
c1ccc(Nc2nc3ccccc3o2)cc1,-44,.,103,107
COc1ccc(C2=NN(CC(=O)N3CCCC3)C(=O)CC2)cc1,7,1,101,103
COC(=O)c1noc(C)c1-c1ccnn1S(=O)(=O)c1cccc(C(F)(F)F)c1,-5,-12,105,105
CC(=O)N1CCN(c2ccccc2F)CC1,-7,-2,102,103
COc1cc(CC(=O)Nc2nc3ccc(S(N)(=O)=O)cc3s2)cc(OC)c1OC,3,-28,111,114
CC(C)Cn1cc(NC(=O)N2CCC(c3ccccc3)C2)c2ccccc2c1=O (stereo not given),-8,-13,98,103
CN1CC=C(/C=C/c2ccc(-c3ccccc3)cc2)CC1,35,-29,102,101
Cc1onc(-c2ccccc2)c1CNC(=O)NC1CCN(C(=O)OCc2ccccc2)CC1,-12,-24,105,111
O=C(CCCSc1nc2cc(Cl)ccc2c(=O)n1Cc1ccco1)N1CCOCC1,-2,-12,102,107
CCOC(=O)C1CCN(/C=C(\C#N)S(=O)(=O)c2ccc(Cl)cc2)CC1,-6,-14,105,95
O=C(Nc1ccc(S(=O)(=O)N2CCc3ccccc32)cc1)c1ccccc1,.,-2,102,97

# 5 structures from above, sorted by formula weight, low to high:
SMILES,MbtI inh,MenB inh,PV pol inh,PV pol inh intensity
CC1CCN(S(=O)(=O)c2cnc[nH]2)CC1,-9,-21,103,106
C=CCNC(=O)CSc1nncn1-c1ccccc1,17,8,101,96
COc1ccc(-c2cc(C(=O)NCC(C)C)no2)cc1OC,-6,-20,101,102
Fc1ccc(N2CCN(C3=Nc4cccc5cccc3c45)CC2)cc1,-4,-63,146,199
CC(OC(=O)CSc1nc2ccccc2o1)C(=O)c1ccc(OC(F)F)cc1 (stereo not given),1,-32,106,99

# The list continues.
SMILES,MbtI inh,MenB inh,PV pol inh,PV pol inh intensity
c1ccc(C2CN3CCSC3=N2)cc1 (stereo not given),1&-4,27&0,99&102,101&99
Cc1ccc(-c2ccn(-c3ccc(C)c(Cl)c3)c(=S)n2)cc1,2,20,111,116
CCc1nnc(NC(=O)c2nnn(-c3cccc(C(F)(F)F)c3)c2C)s1,6,-11,105,106
COc1cnn(-c2ccccc2)c(=O)c1N(C)C,2,-5,102,103
CCOC(=O)/C(Br)=N\Nc1ccc(C)cc1,14,-7,100,102
CC(C)(CO)NCc1ccc(-c2ccc(Cl)cc2)o1,13,26,98,100
COCCNC(=O)c1cc2c(=O)n3cccc(C)c3nc2n(Cc2cccnc2)c1=N,i,-17,.,.
Cc1cccc(C2=NN3C(=O)c4ccccc4C3C2)c1 (stereo not given),4,-4,.,.
COC(=O)c1c(C(=O)OC)c(C)n(Cc2cccnc2)c1C,-10,-10,101,100
c1ccc(CCn2nnc3ccccc32)cc1,43,-6,102,106
CCCCn1c2ccc(Cl)cc2c2nc3ccccc3nc21,7,1,99,100
Cc1ccc(NC(=O)C2C(c3ccccc3)C=CC(c3ccccc3)C2C(=O)O)cc1C (stereo not given),.,-22,94,85
CC(C)NC(=O)CSc1nnc(SCC(=O)NC(C)C)s1,0,10,96,101
Cc1nn(C)c(C)c1NC(=O)Nc1ccccc1,1,-4,102,100
COc1ccc(C=C2C(=O)NC(=O)NC2=O)cc1,27,-42,103,107
COc1cccc(CNC(=O)C2=NNC(=O)CC2)c1,-9,-15,103,102
O=C(NCCc1c[nH]c2ccccc12)NC1CC(=O)N(c2ccccc2)C1 (stereo not given),-7,-25,97,105
COc1ccc(OCC(NS(=O)(=O)c2ccc(-n3cnnn3)cc2)C(C)C)cc1 (stereo not given),-13,-21,104,99
CCOC(=O)CN1C(=O)/C(=c2\sc3nc4ccccc4n3c2=O)c2ccccc21,5,7,100,104
CN(C)S(=O)(=O)c1cccc(CSc2nnc(-c3c[nH]c4ccccc34)o2)c1,9,-7,102,107
O=C(O)CCCc1c(-[n+]2ccccc2)[nH]c2ccccc12,-5,-51,102,104
CCOC(=O)c1[nH]c(C)c(C(=O)N2CCCC(C)C2)c1C (stereo not given),-4,-11,101,103
CCN(C(=O)CSc1ccc2ccccc2n1)C1CCS(=O)(=O)C1 (stereo not given),1,-3,101,104
NC(=O)c1c(NC(=O)Cn2cnc3c(cnn3-c3ccccc3)c2=O)sc2c1CCC2,13,-31,104,106
COc1ccc2c3c([nH]c2c1)[C@H]1C[C@H]2[C@H](C[C@@H](O)[C@H](OC)[C@H]2C(=O)O)CN1CC3,-44,-14,99,103
# Next records follow.
SMILES,MbtI inh,MenB inh,PV pol inh,PV pol inh intensity
CCN(CC)S(=O)(=O)c1ccc(O)c(C(=O)OCC(=O)N2c3ccccc3CC2C)c1 (stereo not given),139,19,94,89
Cc1cccc(NC(=O)COC(=O)c2ccco2)c1,2,-34,101,93
Cc1cc(SCC(=O)NN)c(C)cc1Cl,8,-4,94,94
Cc1cccc(N2C(=O)CC(SCc3nc4ccccc4[nH]3)C2=O)c1 (stereo not given),28,-10,99,101
CN(C(=O)C1CCCC1)c1c(N)n(Cc2ccccc2)c(=O)[nH]c1=O,13,-8,103,102
O=C(CSc1ccccn1)N1CCN(S(=O)(=O)c2ccccc2)C1,-4,-15,101,99
N#Cc1ccc(COC(=O)CCc2nc(N)nc(Nc3ccccc3)n2)cc1,-2,-17,106,106
Cc1ccc(Cl)cc1N1CCN(CCCNC(=O)Cn2ncc3ccsc3c2=O)CC1,1,-16,102,97
CC1=C/C(=N\N=C2\NC(=O)C(CC(=O)Nc3ccccc3)S2)CC(C)(C)C1 (stereo not given),9,-22,103,103
Cc1ccccc1C(=O)N1N=C(c2ccc(Br)cc2)CC1c1nc2ccccc2[nH]1 (stereo not given),-4,-60,101,105
c1ccc(NNc2nncc(-c3ccccc3)n2)cc1,17,-4,100,103
O=C(c1ccc(CN2CCc3ccccc3C2)cc1)N1CCCCCC1,-203,-14,104,108
O=c1[nH]c(-c2ccccc2)nc(=S)[nH]1,13,-27,102,100
O=CNc1c(O)c2ccccc2oc1=O,119,-28,100,104
COc1ccc(OC)c(S(=O)(=O)N2CCCC2)c1,-10,-13,100,96
Cc1cc(C)c(C(=O)c2ccc(C(=O)N(C)C)cc2)c(C)c1,5,11,101,99
O=C1OC(C(=O)NC2CCCCC2)Cc2ccccc21 (stereo not given),-24,-2,100,102
CCCn1c(SCC(=O)Nc2ccccc2C(F)(F)F)nnc1-c1ccoc1C,-4,5,100,102
CN(C)/C=N/C(=S)Nc1cccc(F)c1,31,-6,100,103
O=C(O)c1cccc(N2C(=O)c3ccc(C(=O)O)cc3C2=O)c1,.,1,99,99
COc1ccc(CN(C)C(=O)c2ccc(OC)c(OC)c2)cc1,-6,-22,103,100
COC(=O)Cn1c(=O)oc2ccc(Cl)cc21,.,-5,102,105
COc1ccc(OCCOC(=O)c2cccn2C)cc1,11,-22,106,107
O=C(CSc1ccc(-c2ccncc2)nn1)N1CCCCC1,-13,-8,101,100
Cc1cc(C)c(C#N)c(N2CCN(c3cccc(C)c3C)CC2)n1,2,16,101,100
# (continued)
SMILES,MbtI inh,MenB inh,PV pol inh,PV pol inh intensity
O=C(CC(=O)N1CCc2ccccc2C1)N1CCc2ccccc2C1,-1,.,102,98
Cc1ccc(C(=O)c2cccc(N)c2)cc1C,.,-3,107,100
Cn1c(N)c(C(=O)Cn2nnc3ccccc3c2=O)c(=O)n(C)c1=O,-10,-10,103,106
Cc1ccccc1NS(=O)(=O)c1cc(Br)cnc1N,-8,5,104,102
CN(CC(=O)Nc1ccc(Cl)c(Cl)c1)CC(=O)Nc1ccc2[nH]c(=O)[nH]c2c1,-12,-21,108,110
O=C(C1COc2cc(S(=O)(=O)N3CCCC3)ccc2O1)N1CCCC1 (stereo not given),12,-4,100,101
CC(C)C(=O)Nc1c(C(=O)NC(C)(C)C)oc2ccccc12,121,-24,103,99
CN(c1ccccc1)S(=O)(=O)c1ccc(Cl)cc1,.,-18,106,107
CCOC(=O)C1CCN(C(=O)c2ccc(CNS(=O)(=O)c3ccc(C)cc3)cc2)CC1,12,8,105,99
COC(=O)C(C#N)=C(SC)SC,83*,26,93,101
CCOC(=O)c1[nH]c(C(=O)O)c(CC)c1C,17,-19,101,95
CN1C(=O)/C(=C(\C#N)C(=O)Nc2cc(Cl)ccc2Cl)c2ccccc21,-8,.,106,123
Cc1ccc(C2CC(=O)C3=C(C2)Nc2ccccc2NC3c2cccnc2)cc1 (stereo not given),.,-11,105,114
Cc1ccccc1NS(=O)(=O)c1ccc2oc(=O)ccc2c1,-15,-5,103,105
COc1ccc2c(=O)c(N3C(=O)c4ccccc4C3=O)c(C)oc2c1,-10,-13,100,102
CSc1nnc2c(n1)OC(C1CC=C(C)CC1)Nc1ccccc1-2 (stereo not given),-1,-17,120,152
CCOC(=O)c1ccc(NCc2cc(Br)ccc2O)cc1,22,-17,101,102
Cc1ccsc1CNC(=O)Nc1ccc(C(F)(F)F)cc1,-4,-22,101,87
Cc1ccc(C)c(CSC2=NN3CCCC(=O)N=C3S2)c1,-4,-28,102,103
COC(=O)CNc1ccc(Br)cc1,3,8,100,100
CC(C)c1ccccc1NC(=O)COc1ccccc1F,-9,.,99,99
O=C(OCC(=O)c1c[nH]c2ccccc12)c1cccc(O)c1,-14,-5,104,109
O=c1oc2ccccc2c(N2CCN(c3ccccc3)CC2)c1CN1CCCC1,-5,-3,100,104
C/C(=N\O)C(C)(C)Nc1ccc(C(C)(C)C)cc1,-9,-15,105,111
O=C(Cn1ncc(Cl)c(Cl)c1=O)c1ccc(S(=O)(=O)N2CCCC2)cc1,-4,3,96,94

# Compound profiles (already shown):
# Results for `COc1cccc(CNC(=O)C2=NNC(=O)CC2)c1` : MbtI inh = -9; MenB inh = -15; PV pol inh = 103; PV pol inh intensity = 102
# Results for `Cc1cc(C)c(C(=O)c2ccc(C(=O)N(C)C)cc2)c(C)c1` : MbtI inh = 5; MenB inh = 11; PV pol inh = 101; PV pol inh intensity = 99

# Reprinted from the listing for reference:
SMILES,MbtI inh,MenB inh,PV pol inh,PV pol inh intensity
O=C(CC(=O)N1CCc2ccccc2C1)N1CCc2ccccc2C1,-1,.,102,98
Cc1ccc(C(=O)c2cccc(N)c2)cc1C,.,-3,107,100
Cn1c(N)c(C(=O)Cn2nnc3ccccc3c2=O)c(=O)n(C)c1=O,-10,-10,103,106
Cc1ccccc1NS(=O)(=O)c1cc(Br)cnc1N,-8,5,104,102
CN(CC(=O)Nc1ccc(Cl)c(Cl)c1)CC(=O)Nc1ccc2[nH]c(=O)[nH]c2c1,-12,-21,108,110

# More entries.
SMILES,MbtI inh,MenB inh,PV pol inh,PV pol inh intensity
Cc1ccc(NC(=O)Cc2cccs2)cc1C,-7,.,100,105
COc1ccc(/C=N/C2=NNC(=O)CS2)cc1,.,-8,108,110
O=C1CCC(NC(=O)OCc2ccccc2)(C(=O)O)O1 (stereo not given),-24,12,100,102
COC(=O)C(NC(=O)c1ccccc1)=C1C=C(C)OC(C)=C1,-8,-7,101,101
CCn1nc(C(=O)NC2CCCc3ccccc32)c2ccccc2c1=O (stereo not given),-8,-21,105,97
CCOC(=O)Nc1nnc(C(C)C)s1,-4,-17,101,101
CC(=O)N1CCN(c2csc3ccccc3c2=O)CC1,6,-250,103,102
N#Cc1ccc(OC(F)F)cc1,10,-27,97,94
FC(F)(F)c1ccc(N2CCN(c3cc(C(F)(F)F)nc4ccccc34)CC2)nc1,-8,1,100,98
COc1ccccc1-c1nn(-c2cccc(C(F)(F)F)n2)c(=O)o1,-12,6,103,99
CCCCN1CNC(=S)NC1,7,-20,103,96
CC(C)N(C(=O)COc1ccccc1C(=O)Nc1ccccc1)C(C)C,5,-20,104,106
N#CC1=C(C#N)NC2(CCCCC2)C2CCCCC2=N1 (stereo not given),1,-11,101,98
CC1CN(CC(=O)Nc2ccccc2C(C)C)CC(C)O1 (stereo not given),5,-9,102,95
CC1=CCC2COC(c3ccccc3)C1C2 (stereo not given),.,-4,105,111
CCS(=O)(=O)C(=C1NCCO1)S(=O)(=O)CC,-14,-11,101,103
